Vaccinia Venus: qHTS for Stage-Specific Inhibitors of Vaccinia Orthopoxvirus: Venus Reporter Primary qHTS. AID 720580, 2013. Vaccinia virus Venus reporter expression, fluorescence. Potency, µM (doses to about 36.5 µM), for inactives: top-dose activity change, negative = inhibition, hits mostly inhibitors. hit rate 0.46% among 330,000; active means well fitted inhibition curve with a large enough effect; inconclusive means small, poorly fitted or top-dose-only effect; inactive means no such curve, though single readings can be large or run the other way; tested in A549 cells; note: nearly all actives have a fitted effect of over 30% in size; inactives centre near -10
Vaccinia mCherry: qHTS for Stage-Specific Inhibitors of Vaccinia Orthopoxvirus: mCherry Reporter Primary qHTS | hit rate 0.63% among 310,000 | AID 720579, 2013 | Potency, µM (titrated, usually from 36.5 µM), for inactives: at the top dose activity change, negative = inhibition, hits mostly inhibitors | Vaccinia virus mCherry reporter infection, fluorescence; about a quarter of the inactives have no number; active = well fitted inhibition curve with a large enough effect; inconclusive = small, poorly fitted or top-dose-only effect; inactive = no such curve, though single readings can be large or run the other way; tested in A549 cells; note: nearly all actives have a fitted effect of over 35% in size; inactives centre near -10
Starred values were filed as active, the others as inactive; i = inactive; ? = inconclusive; · = not tested or not shown; [ ] = dose if it differs, or a comment. % is set by controls: 0 for no effect and ±100 for the full control effect; potency is the fitted concentration of half-maximal effect.

smiles	Vaccinia Venus	Vaccinia mCherry
Cc1nc2sccn2c1CN1CCOc2ccc(CN3C[C@@H](C)O[C@@H](C)C3)cc2C1	-26%	-27%
O=C(CSc1nnnn1-c1ccc(Cl)cc1)NNC(=O)c1ccc([N+](=O)[O-])cc1	-8%	-20%
CCOc1ccc(NC(=O)CSC2=Nc3ccccc3C3=NC(Cc4ccccc4)C(=O)N23)cc1 (stereo not drawn)	-13%	-23%
CCOc1ccc(Cl)cc1/C=N/O	-13%	i
O=C(Nc1ccccc1)Nc1ccc(Br)cc1F	-2%	i
CCSc1ccc([C@@H]2[C@@H]3C(=O)N(CC)C(=O)[C@@H]3[C@]3(C(=O)OC)CCCN23)cc1	-17%	-1%
CC(C)c1ccc(NCCC(=O)c2cccs2)cc1	-5%	-12%
CCC(C)(C)NC(=O)CN(C(=O)CCC(=O)Nc1cc(C)ccn1)c1ccc2c(c1)OCCO2	-1%	-15%
O=C(COC(=O)c1ccncc1)c1ccc(Br)cc1	-1%	-4%
COC(=O)c1cc(OC)c(OC)cc1NC(=S)Nc1cc(Cl)ccc1OC	-18%	-26%
O=Cc1cn(-c2ccccc2)nc1-c1ccccn1	-12%	i
COc1ccc(-c2ccc(CN3C(C(C)C)C(=O)N(Cc4cn(CCC5OCCO5)nn4)CCS3(=O)=O)cc2)cc1 (stereo not drawn)	-26%	-5%
Cc1ccc(C(C)C)c(OCC(=O)Nc2nc3c(s2)CCCC3)c1	8%	-13%
Cc1ccc2c(c1)CC1(CN2C)C(=O)NC(=O)N(C(C)C)C1=O (stereo not drawn)	-5%	-12%
CC1(C(=O)NCC2CC2)C=CC2(CCCCC2)N1C(=O)c1ccccc1 (stereo not drawn)	-15%	i
Cc1ccc(OCc2nnc(-c3ccc(Cl)cc3)o2)cc1	-6%	-5%
Cc1c(C(c2cccc([N+](=O)[O-])c2O)c2c(C)n(C)n(-c3ccccc3)c2=O)c(=O)n(-c2ccccc2)n1C	-6%	-13%
CCOC(=O)c1c(NC(=O)Cc2cccs2)sc2c1CCCC2	-28%	·
CCN(CCCNC(=O)Cn1ncc2c([nH]c3ccccc32)c1=O)c1cccc(C)c1	0%	-1%
COc1ccc(N(CC(=O)NCc2ccco2)S(C)(=O)=O)cc1	-10%	-23%
CC(C)C(=O)NCC1CCC2(CCN(Cc3ccc(-c4ccccc4Cl)o3)CC2)O1 (stereo not drawn)	-23%	-24%
O=C(CNC(=O)c1ccccc1)Nc1ccsc1C(=O)O	-10%	i
Cc1ccc(CNC(=O)C(=O)NCC(c2ccco2)S(=O)(=O)c2cccs2)cc1 (stereo not drawn)	-17%	-11%
COc1ccc(C(=O)OCC(=O)NC(C)(C)C)cc1[N+](=O)[O-]	-2%	-13%
COc1ccc(/C(O)=C2\C(=O)C(=O)N(CCN3CCOCC3)C2c2ccccc2OC)cc1 (stereo not drawn)	-4%	i

smiles	Vaccinia Venus	Vaccinia mCherry
O=C(CCC(=O)N(CC(=O)NC1CCCCC1)c1ccc2c(c1)OCO2)Nc1ccccn1	-20%	·
COc1ccc(CNC(=O)C2CCCN2S(=O)(=O)c2ccc(F)cc2)cc1 (stereo not drawn)	-2%	-4%
COc1cc(CC(=O)Nc2sccc2C(N)=O)cc(OC)c1OC	-7%	-19%
Cc1ccc(S(=O)(=O)c2cnc(-c3ccccc3)[nH]c2=O)cc1	-11%	i
CN(C)CC1CCCCC1OC(=O)c1ccc(Br)cc1 (stereo not drawn)	-7%	-5%
Cc1cn([C@H]2C[C@H](O)[C@@H](CNCc3cccc(OC4CCCC4)c3)O2)c(=O)[nH]c1=O	-17%	-9%
O=C(Cn1ccc2cc(S(=O)(=O)N3CCCC3)ccc21)NCCc1ccccc1	-15%	-14%
CCc1cc2ccc(C)c(C)c2nc1SCC(=O)NNC(=O)c1ccco1	-4%	2%
COc1cccc(/C=C/c2nc(C#N)c(N3CCCCCC3)o2)c1	3%	-11%
O=C(COC(=O)c1ccc2c(c1)OCO2)Nc1ncc(Cl)cc1Cl	-9%	i
O=C(c1cc(Cl)nc2ccccc12)N(Cc1nnc(-c2ccc(Cl)cc2)o1)C1CC1	-5%	i
O=[N+]([O-])c1ccc(/C=N\N2CCN(c3ccc(Cl)cc3)CC2)cc1	-16%	·
CC(C)(C)c1ccc(C(=O)O)c(C(=O)c2ccc(C(=O)O)cc2)c1	-21%	-25%
Cc1cc(N2CCOCC2)nc(NCc2ccccc2)n1	?	-27%
O=C(O)Cc1ccc(-c2ccccc2)cc1	-13%	-14%
O=S(=O)(c1ccccc1)N(CC(O)CN1CCOCC1)c1ccccc1 (stereo not drawn)	3%	7%
Cc1nn(CCO)c2ncc(C(=O)c3cc(Cl)ccc3O)cc12	6%	9%
CCS(=O)(=O)c1ccc(NC(=O)c2ccccc2Cl)c(O)c1	-8%	·
CCOc1ncccc1C(=O)OCC(=O)Nc1ccc2c(c1)CCC2	-19%	i
O=C(c1cc2cc(Cl)cc(Cl)c2oc1=O)N1CCOCC1	-7%	-14%
Cc1ccc(NC(=O)C2=CN3CCS(=O)(=O)N=C3C=C2)cc1	-8%	-14%
Cc1ccc(NC(=O)CN(C)CC(=O)Nc2ccccc2-c2ccccc2)cc1	-24%	i
O=C(CCCN1C(=O)/C(=C/c2ccccc2Cl)SC1=S)Nc1ccccn1	2%	0%
COc1ccccc1NC(=O)COC(=O)/C=C/c1ccc2c(c1)OCO2	-16%	-9%
Cc1cccc(N2C(=O)CC(N3CCOCC3)C2=O)c1 (stereo not drawn)	-15%	·

smiles	Vaccinia Venus	Vaccinia mCherry
CC(C)c1ccc2oc(=O)cc(CN3CCN(c4ccccc4)CC3)c2c1	-13%	·
N=c1n(CCO)c2ccccc2n1CCOc1ccccc1	-3%	i
CC(C)C(=O)Nc1cc(C(F)(F)F)ccc1N1CCOCC1	-10%	-10%
CC1(C)C(C=C(Cl)Cl)C1C(=O)OC(C#N)c1cccc(Oc2ccccc2)c1 (stereo not drawn)	-26%	-27%
CC1(C(=O)Nc2ccccc2)CCN1C(=O)C1(c2ccc(Cl)cc2)CC1 (stereo not drawn)	-6%	i
COc1ccc(-c2nc(C3CCCCC3)no2)cc1OC	-5%	-12%
CCCCCC(=O)NNC(=O)c1ccc(F)cc1	-6%	-12%
COC(=O)[C@@H]1C[C@@]2(Br)c3ccccc3N(S(=O)(=O)c3ccccc3)[C@H]2N1C(=O)OC	-8%	-4%
CCN1CCN(c2cc3c(cc2F)c(=O)c(S(=O)(=O)c2ccc(OC)cc2)cn3CC)CC1	-5%	-2%
CCOc1cc(C2/C(=C(/O)c3ccc(S(=O)(=O)N4CCCCC4)cc3)C(=O)C(=O)N2CCOC)ccc1O (stereo not drawn)	-9%[7.34 µM]	i[7.34 µM]
O=[N+]([O-])c1cccc(-c2ccc(/C=N/NC(=S)NCc3ccco3)o2)c1	-9%[7.34 µM]	-14%[7.34 µM]
COc1ccc2c(CNCc3ccc(C)o3)c(C(=O)O)n(Cc3ccccc3C)c2c1	1%	i
COC(=O)C1C/C(=N\NS(=O)(=O)c2ccc(C)cc2)c2ccccc2C1 (stereo not drawn)	-12%	-16%
COC(=O)C1[C@H]2SC(C)(C)C(C(=O)OC)N2C(=O)N1Cc1nc2ccccc2s1 (stereo partly drawn)	-10%	i
O=c1ccc(-c2nc3ccccc3n2Cc2ccc(Cl)cc2)c[nH]1	-15%	i
COc1cc(OC)c(C2=NOC(C(=O)Nc3ccc4c(c3)OCO4)C2)cc1Cl (stereo not drawn)	-7%	-2%
COc1ccccc1/C=C\C=N\NC(=O)c1ccco1	-12%	i
Cn1cc(C(=O)NS(=O)(=O)Nc2ccc(Br)cn2)c2ccccc21	-24%	i
CC(CC(=O)NCc1cccnc1)c1ccccc1 (stereo not drawn)	-8%	·
CCCCN(C(=O)CSCC(=O)Nc1cccc(C)c1)c1c(N)n(Cc2ccccc2)c(=O)[nH]c1=O	-12%	-20%
NC(=O)C1=C(c2ccccc2)c2ccccc2C1=O	1%	-1%
COC(=O)C1(CCSC)NC(c2ccc(O)cc2)C2C(=O)N(c3ccc(F)cc3)C(=O)C21 (stereo not drawn)	-9%	-1%
COc1ccccc1CN(C(=O)Cc1cccs1)C(C(=O)NC1CCCC1)c1ccncc1 (stereo not drawn)	-13%	-6%
CNc1nc(Oc2ccc(=O)[nH]n2)nc(N2CCOCC2)n1	-2%	6%
CC(C)Nc1ncnc2c1ncn2[C@H]1CN(Cc2ccc(-c3ccccc3)cc2)C[C@@H](CO)O1	-23%	16%

5 consecutive entries from above, for reference:
smiles	Vaccinia Venus	Vaccinia mCherry
CC(C)c1ccc2oc(=O)cc(CN3CCN(c4ccccc4)CC3)c2c1	-13%	·
N=c1n(CCO)c2ccccc2n1CCOc1ccccc1	-3%	i
CC(C)C(=O)Nc1cc(C(F)(F)F)ccc1N1CCOCC1	-10%	-10%
CC1(C)C(C=C(Cl)Cl)C1C(=O)OC(C#N)c1cccc(Oc2ccccc2)c1 (stereo not drawn)	-26%	-27%
CC1(C(=O)Nc2ccccc2)CCN1C(=O)C1(c2ccc(Cl)cc2)CC1 (stereo not drawn)	-6%	i

Other entries:
smiles	Vaccinia Venus	Vaccinia mCherry
Cc1ccc(C)c(N(CC(=O)NCc2ccco2)C(=O)CNS(=O)(=O)c2ccc(F)cc2)c1	0%	-5%
COCC(=O)Nc1cc(C(=O)N2CCCC(c3ccccc3)CC2)c2c(c1)nc(-c1ccncc1)n2C (stereo not drawn)	-10%	-16%
O=C(NCCCc1ccccc1)c1nn(-c2ccccc2F)nc1CO	-16%	-8%
COc1ccc(Cl)cc1C(=O)NNC(=S)NC(=O)c1ccc(F)c(F)c1	-10%	-29%
CC1(C)CC(=O)C2=C(C1)OC1=C(C(=O)CC(C)(C)C1)C2c1ccccc1	1%	-6%
CCc1ccc(NC(=O)C2CCN(c3ccc(Sc4ccc(C)cc4)nn3)CC2)cc1	-4%	-5%
CC(C)CN(C(=O)C(c1ccccc1)c1ccccc1)c1c(N)n(CC(C)C)c(=O)[nH]c1=O	-1%	-7%
c1ccc(-c2nnc(-c3ccccn3)s2)nc1	-2%	0%
COC(=O)c1ccc2c(CCO)c[nH]c2c1	-15%	-1%
COC(=O)c1cccc(C(=O)Nc2ccc(F)cc2)n1	-14%	-14%
COc1cccc(CNC(=O)c2cc3c(cc2Cl)N2CCCCCC2=NS3(=O)=O)c1	-14%	i
CCC1(CC(C)c2ccccc2)C(=O)NC(=O)NC1=O (stereo not drawn)	0%	i
Nc1nc2ccc(S(=O)(=O)c3ccc4nc(N)sc4c3)cc2s1	11%	-7%
CC1CC(C)(C)NC(=S)N1CCC(=O)N1CCc2ccccc2C1 (stereo not drawn)	-12%	-2%
CSCC[C@H](NC(=O)Nc1cccc(Br)c1)C(=O)O	0%	i
O=[N+]([O-])c1ccc(CN2CCCCCC2)s1	-5%	-14%
COc1ccc(/C=N/NC(=O)CNC(=O)c2ccc3c(c2)OCCO3)cc1OC	9%	i
COc1ccc(CNC(=O)c2c(O)nc3c(C)cccn3c2=O)cc1	-10%	-14%
CC(C)N(CCC#N)C(=O)Nc1ccc2c(c1)CCO2	-4%	-11%
Cc1ccccc1CN1CCNC(=O)C1CC(=O)O (stereo not drawn)	-11%	i
CN(Cc1ccccc1)C(=O)CCC(=O)N(C)Cc1ccccc1	-14%	·
CCOC(=O)C1=CCN(S(=O)(=O)c2ccc(C)cc2)C1c1ccc(Cl)cc1 (stereo not drawn)	-11%	i
Cc1ccsc1-c1nc(CN2CCCC2c2ccc(F)cc2)c(C)o1 (stereo not drawn)	-7%	0%
CCN(C)c1ccc(/C=N\n2nnnc2N)cc1	?	?
Cc1ccc(-c2nc(NC(=O)CSc3nc(C)nc4sc5c(c34)CCCC5)ns2)cc1	-8%	-9%

Four entries from above in another layout:
> CC(C)CN(C(=O)C(c1ccccc1)c1ccccc1)c1c(N)n(CC(C)C)c(=O)[nH]c1=O
  Vaccinia Venus = -1%
  Vaccinia mCherry = -7%

> c1ccc(-c2nnc(-c3ccccn3)s2)nc1
  Vaccinia Venus = -2%
  Vaccinia mCherry = 0%

> COC(=O)c1ccc2c(CCO)c[nH]c2c1
  Vaccinia Venus = -15%
  Vaccinia mCherry = -1%

> COC(=O)c1cccc(C(=O)Nc2ccc(F)cc2)n1
  Vaccinia Venus = -14%
  Vaccinia mCherry = -14%

(continued)
smiles	Vaccinia Venus	Vaccinia mCherry
NC(=O)N[C@@H](Cc1c[nH]c2ccccc12)C(=O)OCC(=O)N1CCCCC1	3%	-4%
CCCc1nn2c(C)c(-c3ccccc3)nc2s1	-5%	i
O=C(O)CCn1cc(-c2ccc(F)cc2)nc1-c1ccncc1	0%	-14%
Cc1nc(N)[nH]c(=O)c1CCCNc1ccc([N+](=O)[O-])cc1	1%	i
O/N=C/c1cc(Br)ccc1OCc1cccc(F)c1	-21%	-25%

Source: PubChem
